Screening data: PubChem BioAssay, several laboratories
26S disassembly: inhibitors of ATP-driven 26S proteasome dissociation, primary screen, biochemical, bead-based flow cytometry, GFP-tagged proteasome; 0.2% of 24,000 active; inhibition of disassembly, % (test concentration not listed); anti-FLAG beads, GFP-proteasome disassembly;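 active = above 40%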;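 also: plate controls were ATP control with full disassembly for no effect and ATP-gamma-S intact proteasomes for full effect; higher percent means more bead fluorescence retained so stronger block of disassembly; stock transfer was 100 nL into about 10 µL; wells with too few beads may also be inconclusive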
VCAM-1 rise: enhancers of VCAM-1 display on endothelial cells, cell-based, plate reader, pooled HUVEC, TNFa stimulus (AID 455). HUVEC TNFa-induced VCAM-1 immunofluorescence, plate reader; numbers were filed only for top-ranked candidate wells. augmentation, % at 5 µM. 0.2% of 10,000 active;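 active = a compound raising TNF-alpha-driven VCAM-1 surface staining, with its hit status upheld on visual or statistical review; inactive = the rest, including hits rejected on review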;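 also: 0% = TNFa with vehicle and 100% = strongest image-checked hit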
* marks the source's active call; other numbers are inactive results; i = inactive. These rows are one share of the data. The share of hits here may be higher or lower than overall.

| # | SMILES | 26S disassembly | VCAM-1 rise |
| --- | --- | --- | --- |
| 1 | CCCCC1C(=O)N(c2ccccc2)N(c2ccccc2)C1=O | 1.0 | i |
| 2 | Cc1cccc(C)c1NC(=O)C1CCCCN1C (centres undefined) | -0.2 | i |
| 3 | Cn1c(=O)c2c(ncn2CCO)n(C)c1=O | 0.6 | i |
| 4 | CC[C@]1(O)C[C@@H]2CN(CCc3c([nH]c4ccccc34)[C@@](C(=O)OC)(c3cc4c(cc3OC)N(C)[C@H]3[C@@](O)(C(=O)OC)[C@H](OC(C)=O)[C@]5(CC)C=CCN6CC[C@]43[C@@H]65)C2)C1 | 0.8 | i |
| 5 | CCCCOc1ccc(CC(=O)NO)cc1 | 0.2 | i |
| 6 | C[C@@H]1C[C@H]2[C@@H]3C[C@H](F)C4=CC(=O)C=C[C@]4(C)[C@@]3(F)[C@@H](O)C[C@]2(C)[C@@]1(O)C(=O)COC(=O)C(C)(C)C | -1.5 | i |
| 7 | CN(C)CCOc1ccccc1Cc1ccccc1 | 0.6 | i |
| 8 | CCn1cc(C(=O)O)c(=O)c2cc(F)c(N3CCNCC3)nc21 | -0.9 | i |

Compound profiles, as listed above. Order of screens: 26S disassembly, VCAM-1 rise
Listed for CCCCOc1ccc(CC(=O)NO)cc1 = 0.2, i
Listed for CCn1cc(C(=O)O)c(=O)c2cc(F)c(N3CCNCC3)nc21 = -0.9, i
Listed for CCCCC1C(=O)N(c2ccccc2)N(c2ccccc2)C1=O = 1.0, i
Listed for C[C@@H]1C[C@H]2[C@@H]3C[C@H](F)C4=CC(=O)C=C[C@]4(C)[C@@]3(F)[C@@H](O)C[C@]2(C)[C@@]1(O)C(=O)COC(=O)C(C)(C)C = -1.5, i
